TRPV1 potentiator: potentiators of human vanilloid receptor 1 (TRPV1); potentiation, % at 8.33 µM; Q8NER1; hit rate 0.02% among 320,000; TRPV1-expressing cells, Fluo-8 calcium influx, capsaicin EC20 potentiation; host cell line not named in the record; control for the full effect not named in the record; active means potentiation above 80%; inconclusive means 30% to 80%; inactive means below 30%; note: 0% is about no effect
Target sequence (Q8NER1 whole entry, looked up): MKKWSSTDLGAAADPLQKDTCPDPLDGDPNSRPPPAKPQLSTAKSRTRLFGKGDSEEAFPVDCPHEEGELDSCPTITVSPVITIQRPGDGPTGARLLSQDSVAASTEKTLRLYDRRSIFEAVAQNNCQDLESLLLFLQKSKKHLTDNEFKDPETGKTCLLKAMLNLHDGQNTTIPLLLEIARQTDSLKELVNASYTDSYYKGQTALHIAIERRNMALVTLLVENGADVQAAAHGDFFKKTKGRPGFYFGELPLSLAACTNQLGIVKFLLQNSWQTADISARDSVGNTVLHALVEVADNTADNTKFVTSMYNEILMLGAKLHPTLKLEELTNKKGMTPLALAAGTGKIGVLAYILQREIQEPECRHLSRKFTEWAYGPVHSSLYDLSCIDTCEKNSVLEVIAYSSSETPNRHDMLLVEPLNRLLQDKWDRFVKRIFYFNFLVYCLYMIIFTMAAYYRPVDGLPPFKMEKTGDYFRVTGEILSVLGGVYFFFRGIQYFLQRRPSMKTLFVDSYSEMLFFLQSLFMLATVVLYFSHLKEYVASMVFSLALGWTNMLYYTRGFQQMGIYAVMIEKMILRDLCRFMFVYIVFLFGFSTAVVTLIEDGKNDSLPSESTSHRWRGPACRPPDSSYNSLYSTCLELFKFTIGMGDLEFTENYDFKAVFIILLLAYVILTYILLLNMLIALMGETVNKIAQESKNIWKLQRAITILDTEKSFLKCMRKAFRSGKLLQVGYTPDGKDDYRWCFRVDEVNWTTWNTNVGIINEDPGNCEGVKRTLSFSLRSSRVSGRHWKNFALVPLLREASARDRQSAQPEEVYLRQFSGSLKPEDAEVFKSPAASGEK
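Cells expressing TRPV1 were dye-loaded with Fluo-8 and read kinetically: 10 s baseline, 3 min after compound (agonist portion), then 2 min after EC20 capsaicin (allosteric enhancer portion). Calcium-bound dye fluorescence at 480/520 nm.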
Sfp PPTase inh: Sfp phosphopantetheinyl transferase inhibition. Q9F4F7. Biochemical Sfp PPTase activity, qHTS. Potency, µM, for the others: max response, negative = inhibition, most hits filed as inhibitors. hit rate 3.5% among 310,000; active = well fitted inhibition curve with a large enough effect; inconclusive = small, poorly fitted or top-dose-only effect, or another doubt; inactive = no such curve, though single readings can be large or run the other way;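 note: the enzyme is Sfp with the accession as filed and its product quenches rhodamine fluorescence; potency is the fitted concentration of half-maximal effect; 0% = enzyme reaction without inhibitor and -100% = no enzyme wells; top concentration of the series not given in the record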
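Reaction rates are the 30-min fluorescence difference (ex 525, em 598 nm) in wells containing 15 nM Sfp, 5 uM rhodamine-CoA and 12.5 uM BHQ-2-YbbR at pH 7.6 with 10 mM MgCl2.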
gsp ag: gsp mutant agonism; hit rate 0.13% among 340,000; AID 624287; Potency, µM (series often up to 76.9 µM), for the others: top-dose activation (cAMP increase), hits mostly activators; gsp mutant cells, cAMP HTRF, 30 min; control for the full effect not named in the record; active = well fitted activation curve with a large enough effect; inconclusive = small, poorly fitted or top-dose-only effect, or another doubt; inactive = no such curve, though single readings can be large or run the other way; cell line not stated here;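 note: phosphodiesterase inhibitor Ro 20-1724 added with compounds to block cAMP breakdown; potency is the fitted concentration of half-maximal effect; nearly all actives have a fitted effect of over 60% in size; about a fifth of the inactives were tested at one dose only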
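Cells stably selected in G418 were plated at 2000/well, grown 16-24 hr, then given compounds in DMSO with the PDE inhibitor […] (300 uM solution added) for 30 min at 37C; cAMP was read by HTRF.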
gsp antag: gsp mutant antagonism; gsp-mutant cells, cAMP HTRF, 30 min; control for the full effect not named in the record; Potency, µM (doses to about 76.9 µM), without a hit: at the highest dose activity change, negative = inhibition, hits mostly inhibitors; hit rate 0.4% among 340,000; AID 624288; active = falling curve of any shape with a large fitted effect; inconclusive = falling curve, mostly with a smaller effect; inactive = flat or rising curve; cell line not stated here;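 note: intracellular cAMP measured with PDE inhibitor Ro 20-1724 present during compound exposure; potency is the fitted concentration of half-maximal effect; % is set by controls: 0 for no effect and ±100 for the full control effect; nearly all actives have a fitted effect of over 65% in size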
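HTRF cAMP measurement after 30 min RT detection following 30 min, 37C compound treatment alongside […] (added as 300 uM solution) in G418-selected cells seeded at 2000/well and grown 16–24 h.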
D2 potentiator: potentiates the human D2 dopamine receptor allosterically; AID 624464; potentiation, % (no concentration beside the values); hit rate 0.23% among 360,000; DiscoveRx D2 beta-arrestin cells, luminescence, 90 min; 100% = 57 uM dopamine signal; P14416; active = potentiation of 50% or more; inconclusive = 30% to 50%; inactive = 30% or less;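 note: compound concentration not given in the record; tested on top of an EC20 dose of dopamine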
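PathHunter D2 cells, attached overnight at 37 deg C, received compound in DMSO plus dopamine at EC20 (50 nM final) for 90 min at 37 deg C. Beta-arrestin recruitment was read as luminescence after 1 h with detection reagent at ambient temperature.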
Menin-MLL FL inh: inhibitors of human menin-MLL interaction, wild-type MLL peptide. 290,000 tested, under 10 active. AID 1766. Fluorescence polarization, fluorescein-MLL peptide displacement from menin. FP activity change, % at 61.4 µM; inconclusive = falling polarisation curve, or a change in total fluorescence; inactive = total fluorescence flat and polarisation flat or rising; no compound was filed as active; the % refers to the polarisation; negative = inhibition;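 note: % of control where 0% means no effect; inhibitors lower the polarisation; unlabelled MLL peptide was the positive control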
ClpP mod: qHTS Assay for Activators of ClpP; purified B. subtilis ClpP, FRET peptide cleavage, 20 min; Potency, µM (doses to about 57.5 µM), without a hit: at the highest dose activity change, negative = active; ATP-dependent Clp protease proteolytic subunit (Bacillus subtilis (strain 168)), P80244; hit rate 1.9% among 340,000; AID 651965, 2013; active = well fitted falling curve with a large enough effect; inconclusive = small, poorly fitted or top-dose-only effect; inactive = no such curve, though single readings can be large or run the other way; note: potency is the fitted concentration of half-maximal effect; the source files actives as falling curves though it sought activators and does not explain the sign; nearly all actives have a fitted effect of over 65% in size; many hits overshoot -100%
Target sequence (P80244 whole entry, looked up): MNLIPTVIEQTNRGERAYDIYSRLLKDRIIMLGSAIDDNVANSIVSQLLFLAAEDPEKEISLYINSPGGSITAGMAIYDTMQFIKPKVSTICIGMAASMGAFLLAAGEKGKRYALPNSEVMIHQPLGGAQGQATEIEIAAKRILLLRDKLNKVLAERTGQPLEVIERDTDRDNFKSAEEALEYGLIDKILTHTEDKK
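Purified B. subtilis ClpP, 10 microg/mL final in Tris/HCl pH8 with KCl, BSA, glycerol and Tween-20, cleaved an Abz/nitrotyrosine-quenched decapeptide. Fluorescence (ex 320, em 430) was read at 0 and 20 min at room temperature. Delta was normalized to 5.8 microM ADEP and DMSO/no-enzyme controls.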
* marks the source's active call; other numbers are inactive results; ? = inconclusive; · = not tested or not shown; & = joins results of further samples; [ ] = remark or other dose. Outcome played no part in choosing rows; overall some 5.1% were active at least once.

SMILES	TRPV1 potentiator	Sfp PPTase inh	gsp ag	gsp antag	D2 potentiator	Menin-MLL FL inh	ClpP mod
CCOC(=O)C1C(c2cc(OC)c(O)c(OC)c2)NC(=S)NC1(O)C(F)(F)F (stereo unspecified)	8	-8%	21%	7%	-2	-0.4	1.2%
c1ccc(C(c2nnnn2C2CCCC2)N2CCCCCC2)nc1 (stereo unspecified)	·	79µM*	-17%	4%	-13	-1.5	22µM*
Cc1ccccc1OCc1nc(-c2ccc(NC(=O)c3ccc4c(c3)OCO4)cc2)no1	-13	8%	10%	8%	?	-0.5	-26%
CCOc1ccccc1-c1nc(-c2ccc(C)nc2OC)no1	-7	-9%	18%	1%	11	0.9	28µM*
CCOC(=O)c1[nH]ncc1CN1CCCC(C(=O)c2ccc(OC)c(OC)c2)C1 (stereo unspecified)	8	19%	1%	-4%	-9	-3.0	·
COc1ccc(N=C/C=C2/C=C(c3ccccc3)OC(C)(C)O2)cc1	6	?	-36%[inhibitor]	7%	-5	9.3	·
Cc1ccc(OCc2cc(C(=O)N3CCc4[nH]cnc4C3c3ccccn3)no2)cc1C (stereo unspecified)	8	10%	-17%	4%	-23	·	0.1%
Cc1nnc(N/N=C/c2cc(C)n(-c3ccc(F)cc3)c2C)n1N	5	45µM*	17%[15.4 µM]	12%	0	-1.6	1.1%
CCN1CCN(C(CNS(=O)(=O)c2cccs2)c2cccnc2)CC1 (stereo unspecified)	7	3%	10%	13%	-12	0.2	1.8%
CC(C)N(CC(N)=O)c1ccc(S(=O)(=O)N2CCCC2)cn1	-1	·	-34%[inhibitor]	13%	-1	·	-7.3%
O=C(NCC1CCCO1)c1csc2c1CCCCC2 (stereo unspecified)	-1	15%	7%	6%	-17	0.0	6.7%
CCN(C(=O)c1cc2c(=O)[nH]c3ccc(C)cc3c2s1)c1ccccc1F	-14	0%	16%[15.4 µM]	7%	-5	1.4	·
Cc1c(-c2ccc(Cl)cc2Cl)nc2ccccc2c1C(=O)NCCN1CCOCC1	0	2%	16%	-7%	-16	0.7	1.1%
CCCCn1c(CN2CCN(c3ccc(F)cc3)CC2)nc2c1c(=O)n(C)c(=O)n2C	21	14%	-11%	10%	-10	3.3	-1.3%
CC(C)OC(=O)C1C(=O)CC(C)(O)C(C(=O)OC(C)C)C1c1cccc([N+](=O)[O-])c1 (stereo unspecified)	-19	11%	21%[15.4 µM]	-42%	4	3.6	·
COc1ccc(OCCn2cc(C=O)c3ccccc32)cc1	7	-6%	15%[15.4 µM]	11%	0	-3.4	1.0%
COc1ccc(N2CCN(S(=O)(=O)c3ccc4c(c3)NC(=O)CS4)CC2)cc1	13	12%	16%	2%	3	·	2.6%
O=C(O)CCN1C(=O)C2C3CC(C2C1=O)C1C(c2ccccc2)c2sc(=O)[nH]c2SC31 (stereo unspecified)	-16	-23%	23%	2%	-4	2.9	1.7%
NS(=O)(=O)c1cc2c(cc1Cl)NC(CSCc1ccccc1)=NS2(=O)=O	23	?	·	-24%	2	1.9	0.6%
COc1cc(/C=C/C=C2/CC/C(=C/C=C/c3ccc(O)c(OC)c3)C2=O)ccc1O	·	·	-35%[inhibitor]	-31%	-23	·	0.9%
COc1ccc(Cl)cc1S(=O)(=O)NC(C)C(=O)NCc1ccncc1 (stereo unspecified)	2	7%	-2%[15.4 µM]	11%	-6	3.4	-0.4%
Cc1cccc(S(=O)(=O)NCC2CCCO2)c1 (stereo unspecified)	-13	1%	-1%	-1%	-10	0.2	0.2%
Cc1c(NC(=O)CSc2n[nH]c(=O)n2-c2ccccc2)c(=O)n(-c2ccccc2)n1C	0	18%	-1%[15.4 µM]	·	-44	-1.4	·
CC(=O)CCC(=O)N1CCCC(CNC(=O)c2ccc(-c3ccccc3)cc2)C1 (stereo unspecified)	9	-8%	10%	-3%	-15	-3.5	0.6%
Cc1ccccc1CNC(=O)CCCn1ncn2c(cc3occc32)c1=O	-3	4%	?	-8%	-9	-2.4	1.2%&-1.4%
Cc1c(C(=O)OC(C)C)sc(NC(=O)C2CCCO2)c1C(=O)OC(C)C (stereo unspecified)	-7	-2%	-47%[inhibitor]	-15%	-9	3.0	-21%
O=c1c2ccccc2nc(-c2ccco2)n1Cc1ccccc1	-15	-11%	15%	-16%	-9	13	-0.4%
CC(=O)NCC(=O)NC(C(=O)Nc1ccc2c(c1)OCCO2)c1ccccc1 (stereo unspecified)	9	1%	-24%	-5%	25	-0.9	0.5%
Cc1cccc(N2CC(C(=O)NCc3ccco3)CC2=O)c1C (stereo unspecified)	28	·	22%	1%	0	·	-0.5%
Cc1ccc(OCC(=O)Nc2cccnc2Cl)cc1C	-10	18%	-1%[15.4 µM]	-3%	-5	-0.6	·
O=C(CSc1nnc(-c2cccs2)n1C1CC1)NC1CCS(=O)(=O)C1 (stereo unspecified)	1	·	18%	-1%	-13	·	-6.2%
CCCCCC(=O)N1CC2(CC)CN(C(=O)CCCCC)CC(CC)(C1)C2=O	-4	-2%	-5%[15.4 µM]	-2%	-10	1.4	·
Cc1cccc(Nc2cnn(C34CC5CC(CC(CC(=O)O)(C5)C3)C4)c(=O)c2Cl)c1	-2	8%	1%	-16%	-1	4.4	0.3%
COc1ccc(/C=N/NC(=O)c2cccnc2)cc1CN1CCN(c2ccc(F)cc2)CC1	0	14%	?	2%	-34	0.5	-5.7%
COc1cccc(NC(=O)COc2cccnc2[N+](=O)[O-])c1	·	·	?	?	-2	·	·
O=C(O)CCCN=Cc1c(O)c2ccccc2oc1=O	0	3%	?	8%	-4	1.0	·
COc1cc(OC)c(C(=O)Nc2ccc(S(=O)(=O)N3CCCCC3)cc2)cc1OC	0	·	-7%	-11%	-4	·	?
COc1ccc(/C=C2\Sc3ccc(C(=O)N4CCc5ccccc5C4)cc3N(C)C2=O)cc1	13	-10%	·	·	·	-2.3	·
Cc1ccc2nc(-c3ccc(NC(=O)CN4C(=O)NC(C)(c5ccc(OC(F)F)cc5)C4=O)cc3)sc2c1 (stereo unspecified)	15	18%	1%	3%	1	-4.1	14µM*
N#Cc1c(-c2ccccc2)nc(N2CCN(Cc3ccccc3)CC2)[nH]c1=O	0	14%	11%	-15%	-1	-3.4	·
COc1ccc(-n2nnc3c(=O)n(CC(=O)N4CCC(Cc5ccccc5)CC4)cnc32)cc1	4	-2%	-29%	-3%	-7	0.0	-0.2%
Cc1cc(S(=O)(=O)Nc2ccc(C(=O)NCC(c3ccco3)N3CCCC3)cc2)ccc1F (stereo unspecified)	5	12%	?	-4%	-4	·	1.3%
Cc1c(NC(=O)NC2CCCCC2)cccc1[N+](=O)[O-]	-24	-13%	12%	6%	-15	4.4	-0.4%
COc1ccc(NC(=O)C2=NNC(=O)CC2)cc1S(=O)(=O)N1CCCCC1	-10	30%[activator]	?	28%	-5	9.8	-0.1%
COc1ccc(C(CNC(=O)C(C)Sc2ccccc2)N2CCOCC2)cc1 (stereo unspecified)	·	·	21%[15.4 µM]	-6%	0	·	·
COc1cccc(CNc2ccccn2)c1O	-6	15%	1%	-4%	0	2.4	·
O=C(OCc1nc2ccsc2c(=O)[nH]1)c1cccc(S(=O)(=O)N2CCOCC2)c1	-6	·	86%[15.4 µM]	30%	-6	·	·
CCC(C)(C)n1nnnc1C(c1cc(OC)c(OC)c(OC)c1)N1CCN(c2ccccc2)CC1 (stereo unspecified)	6	12%	0%	4%	-14	6.0	0.3%
CN(C(=O)COC(=O)Cc1ccccc1[N+](=O)[O-])C1CCS(=O)(=O)C1 (stereo unspecified)	·	·	9%	13%	-1	·	-1.3%
COc1cc2c(cc1OC)C(C(=O)Nc1cccc(C)n1)C(c1cccnc1)N(C)C2=O (stereo unspecified)	?	11%	-11%	12%	1	1.6	-8.5%
Further entries:
SMILES	TRPV1 potentiator	Sfp PPTase inh	gsp ag	gsp antag	D2 potentiator	Menin-MLL FL inh	ClpP mod
COc1ccc(NC(=O)Cc2coc3cc(C)ccc23)cn1	-15	3%	3%	-3%	-5	-6.6	·
CCOC(=O)c1sc(NC(=O)CSc2ncccn2)nc1C	-11	3%	-21%	13%	15	·	-2.8%
Cc1ccc(-n2nnnc2SCC(=O)NCC2(N3CCOCC3)CCCCC2)c(C)c1	2	·	-28%	-13%	-15	·	0.7%
S=C(Nc1ccc(N2CCOCC2)cc1)Nc1ccc2snnc2c1	2	-67%	-150%[inhibitor]	-1%	-5	-0.6	-0.7%
CCC(C)c1ccc(NC(=O)Nc2cnccn2)cc1 (stereo unspecified)	3	3%	?	27%	-3	-0.9	-3.5%
O=C(OCc1nnc(-c2ccccc2)o1)C1CC(=O)N(CCc2ccccc2)C1 (stereo unspecified)	0	·	32%	-3%	0	·	-3.5%
NS(=O)(=O)c1ccc(NC(=O)COC(=O)c2cnccn2)cc1	-8	-7%	-10%	6%	0	2.8	·
COc1ccc(NC(=O)C2CCC2)cc1S(=O)(=O)Nc1cc(C)ccc1Br	·	·	-5%[15.4 µM]	?	11	·	1.7%
CCOc1ccc(C(=O)NC(Cc2ccccc2)C(=O)OC)cc1 (stereo unspecified)	-1	-10%	26%	-14%	-2	0.2	-3.8%
COc1cc(OC)cc(C2C(C#N)=C(N)Oc3n[nH]c(-c4cccnc4)c32)c1 (stereo unspecified)	-1	0%	5%	-3%	8	-0.6	0.2%
COc1ccc(CNC(=O)COC(=O)c2ccc3ncsc3c2)cc1OC	-19	·	-5%	3%	-1	·	-5.5%
Cc1cc(C)nc(NC2=NCC(=O)N2c2ccccc2)n1	-6	-2%	-6%	6%	0	5.2	-1.3%

Of the compounds above, these contain a cyano group:
SMILES	TRPV1 potentiator	Sfp PPTase inh	gsp ag	gsp antag	D2 potentiator	Menin-MLL FL inh	ClpP mod
N#Cc1c(-c2ccccc2)nc(N2CCN(Cc3ccccc3)CC2)[nH]c1=O	0	14%	11%	-15%	-1	-3.4	·
COc1cc(OC)cc(C2C(C#N)=C(N)Oc3n[nH]c(-c4cccnc4)c32)c1 (stereo unspecified)	-1	0%	5%	-3%	8	-0.6	0.2%
